Compound activity: PubChem, several laboratories
MT1-MMP act inh = blockers of MT1-MMP proenzyme processing, primary screen, HT1080 RFP-PRO-GFP cells, GFP/RFP fluorescence; Matrix metalloproteinase-14 (Homo sapiens), P50281; GFP/RFP ratio fluorescence, overnight; percent of plate control window, DMSO zero; GFP/RFP ratio change, % at 20 µM; actives 0.061% (n = 360,000);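 active = GFP/RFP ratio change of at least 30% with cell ATP level not reduced by more than half and red fluorescence within 50% of control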; also: strong numbers were not always called active
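Read-out: GFP/RFP fluorescence ratio; Test system: RFP-PRO-GFP reporter HT1080 cells; Compound dosing: single-point 20 µM compound, 1% DMSO; Times: overnight compound exposure at 37 °C.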
UUG fidelity = modulators of yeast start codon fidelity, primary screen, whole organism, S. cerevisiae, single point, plate reader; S. cerevisiae UUG-firefly luciferase reporter, luminescence/redox ratio; activity score, % at 18.7 µM; actives 0.13% (n = 350,000);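 active = replicate mean at a twofold rise or more, about +100% in these data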;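 also: firefly luciferase made from a UUG start codon reports start codon fidelity; reporter light over untreated wells divided by growth signal over untreated wells; some hits fall short of that in this replicate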
MT1-MMP act inh RFP = recorded beside MT1-MMP act inh, whose call it bears; RFP signal change, %; measured here: RFP expression control read;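 0 = vehicle wells; hits needed this value within 50% of zero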
* hit, by the source's call.

The opening 2 records as a preview:
SMILES	MT1-MMP act inh	MT1-MMP act inh RFP	UUG fidelity
CCOc1ccccc1C(N)=O	-1	4	-11
CC(=O)Nc1ccc(C(=O)O)cc1	2	7	-15

The whole of this part, from the start:
SMILES	MT1-MMP act inh	MT1-MMP act inh RFP	UUG fidelity
CCOc1ccccc1C(N)=O	-1	4	-11
CC(=O)Nc1ccc(C(=O)O)cc1	2	7	-15
CC1(C)OC2CC(=O)OCC23C1CC(=O)C1(C)C3CCC2(C)C(c3ccoc3)OC(=O)C3OC321 (stereo not given)	-1	4	15

Looked up above.
Reading for CCOc1ccccc1C(N)=O under MT1-MMP act inh RFP: 4
Reading for CC1(C)OC2CC(=O)OCC23C1CC(=O)C1(C)C3CCC2(C)C(c3ccoc3)OC(=O)C3OC321 (stereo not given) under MT1-MMP act inh: -1

Not all compounds are listed, so the mix of outcomes need not match the whole.
